Source: PubChem BioAssay
Lassa entry inh = blocks Lassa virus binding to or entry into cells. Lassa virus pseudotype entry inhibition, cell reporter; control for the full effect not named in the record. AID 540256. Potency, µM (top dose mostly 37.9 µM), for inactives: top-dose activity change, negative = inhibition, most hits filed as inhibitors. actives 1.2% (n = 300,000); active means well fitted inhibition curve with a large enough effect; inconclusive means small, poorly fitted or top-dose-only effect, or effect the other way; inactive means flat fitted curve, though single readings scatter; tested in HEK293 cells; note: % is set by controls: 0 for no effect and ±100 for the full control effect; nearly all actives have a fitted effect of over 50% in size; luciferase read-out
Cruzain Triton = cruzain (T. cruzi) inhibition with detergent; AID 1478; actives 0.43% (n = 200,000); purified cruzain, Z-FR-AMC fluorescence, 0.01% Triton; Potency, µM, for the others: max response, negative = inhibition, usual class: inhibitors; active = well fitted curve in the direction sought with a large enough effect; inconclusive = small, poorly fitted or top-dose-only effect, or another doubt; inactive = no such curve, though single readings can be large; an effect the other way counts as inactive or inconclusive;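 note: plate controls were neutral wells for no effect and buffer without enzyme for full effect; nearly all actives have a fitted effect of over 40% in size; top concentration of the series not given in the record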
Target sequence (P25779 123-467 limits assumed): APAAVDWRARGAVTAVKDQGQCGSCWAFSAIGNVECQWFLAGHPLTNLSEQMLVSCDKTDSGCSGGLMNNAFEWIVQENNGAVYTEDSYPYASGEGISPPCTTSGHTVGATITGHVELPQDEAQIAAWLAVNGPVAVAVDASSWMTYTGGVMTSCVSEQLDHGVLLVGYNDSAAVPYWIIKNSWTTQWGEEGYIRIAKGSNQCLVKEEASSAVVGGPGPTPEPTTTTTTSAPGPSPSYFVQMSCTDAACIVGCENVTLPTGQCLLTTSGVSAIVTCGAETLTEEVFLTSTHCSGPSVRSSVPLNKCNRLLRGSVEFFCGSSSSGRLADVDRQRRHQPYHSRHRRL
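Z-FR-AMC hydrolysis (2 uM substrate) by cruzain (1.5 nM) monitored kinetically at ex 360/em 450 nm after 15 min room-temperature compound exposure; 0.01% Triton X-100, pH 5.5, 5 mM DTT.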
SARS PLpro yeast = inhibitors of SARS-CoV papain-like protease in yeast; S. cerevisiae expressing SARS-CoV PLpro, growth rescue; control for the full effect not named in the record; Potency, µM (top dose mostly 32.9 µM), for the others: at the highest dose activity, positive = growth rescue; actives 0.19% (n = 330,000); AID 485353; note: 0% is about no effect; nearly all actives have a fitted effect of over 55% in size; growth read by luminescence after 48 h
2A StopGo = FMDV 2A StopGo reporter, luciferase signal. human cells with a luciferase reporter of 2A StopGo recoding; control for the full effect not named in the record. Potency, µM (doses to about 57.9 µM), inactives show at the top dose signal change, negative = less light. actives 1.2% (n = 410,000). AID 1159524; active = well fitted falling curve with a large enough effect; inconclusive = small, poorly fitted or top-dose-only effect; inactive = no such curve, though single readings can be large or run the other way; tested in HEK293T cells; note: % is set by controls: 0 for no effect and ±100 for the full control effect; nearly all actives have a fitted effect of over 45% in size; luciferase light after 4 h
Cruzain noTriton = cruzain (T. cruzi) inhibition without detergent; P25779; purified cruzain, Z-FR-AMC fluorescence, no detergent; Potency, µM, without a hit: max response, negative = inhibition, actives largely listed as inhibitors; actives 2.3% (n = 200,000); AID 1476; active = well fitted curve in the direction sought with a large enough effect; inconclusive = small, poorly fitted or top-dose-only effect, or another doubt; inactive = no such curve, though single readings can be large; an effect the other way counts as inactive or inconclusive;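 note: plate controls were enzyme without inhibitor for no effect and buffer without enzyme for full effect; nearly all actives have a fitted effect of over 40% in size; top concentration of the series not given in the record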
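Detergent-free condition (0.00005% Triton X-100) in acetate buffer pH 5.5 with DTT. 1.5 nM enzyme and compound were pre-mixed 15 min, then 2 uM Z-FR-AMC substrate added; reaction progress from fluorescence change between first and third reads (60 s).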
MARV entry inh = inhibitors of Marburg virus binding or cell entry; AID 540276; Marburg virus pseudotyped entry inhibition, cell reporter; control for the full effect not named in the record; about a third of the inactives were read at about 46 µM; actives 1.8% (n = 300,000); Potency, µM (doses to about 37.8 µM), without a hit: top-dose activity change, negative = inhibition, usual class: inhibitors; active = well fitted inhibition curve with a large enough effect; inconclusive = small, poorly fitted or top-dose-only effect, or effect the other way; inactive = flat fitted curve, though single readings scatter; tested in HEK293 cells; about a fifth of its hits are not listed in these tables; note: % is set by controls: 0 for no effect and ±100 for the full control effect; luciferase read-out
RE007 growth inh = less growth of the S. pombe RE007 Vpr strain; actives 0.21% (n = 360,000); S. pombe RE007 Vpr strain, BacTiter-Glo ATP luminescence, 24 h; control for the full effect not named in the record; AID 651644; Potency, µM (highest dose often 92.2 µM), for inactives: top-dose activity change, negative = less growth; active = well fitted falling curve with a large enough effect; inconclusive = small, poorly fitted or top-dose-only effect; inactive = no such curve, though single readings can be large or run the other way;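 note: % is set by controls: 0 for no effect and ±100 for the full control effect; nearly all actives have a fitted effect of over 50% in size; the assay follows cell death caused by Vpr and the record does not say whether a fall means rescue or toxicity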
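Fission yeast RE007 carrying one integrated HIV-1 vpr copy, seeded at OD 0.01 in PMG+AL medium with 23 nL pinned compound. Grown 24 h at 30 degrees; viability read by BacTiter-Glo luminescence after 5 min.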
NS1 function inh = inhibitors of influenza NS1 protein function | AID 2326 | actives 0.4% (n = 270,000) | Potency, µM (titrated, usually from 46.1 µM), for the others: at the top dose activity, positive = more growth | S. cerevisiae slowed by influenza A NS1, growth recovery by OD600; note: actives are rising curves; nearly all actives have a fitted effect of over 50% in size
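S. cerevisiae expressing influenza A NS1, grown in glucose, washed, then diluted 1:100 into pH 6.0 -URA galactose medium with 23 nl compound. Growth recovery read as OD600; NS1-free strain serves as control.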
The depositor's hits bear a star; ? = inconclusive; . = no result given; [ ] = remark or other dose. Unless noted, calls come from the whole dose curve; as a rule, active means well fitted rising curve with a large enough effect; inconclusive means small, poorly fitted or top-dose-only effect; inactive means no such curve, though single readings can be large or run the other way. Potency is the fitted concentration of half-maximal effect.

SMILES	2A StopGo	Cruzain noTriton	MARV entry inh	SARS PLpro yeast	RE007 growth inh	Lassa entry inh	Cruzain Triton	NS1 function inh
COc1cc(OC)cc(C(=O)Nc2sc3c(c2C(N)=O)CCC3)c1	4%	.	0%[46.1 µM]	8%	30%	?	.	1%
O=C1N=C(N2CCOCC2)S/C1=C\c1cccs1	66%[activator]	.	3%	0%	18%	.	.	-5%
CCN(C(=O)c1cccs1)c1nc(-c2ccc(OC)cc2)cs1	28%	.	?	-1%	-18%	9%[46.1 µM]	.	.
O=C(CNC1CCCCCC1)c1cccs1	4%	11%	7%	-18%	22%	-1%	-3.6%	-14%
COc1cc(C(=O)NC(=S)Nc2ccc3c(c2)OCO3)cc(OC)c1OC	-22%	.	-8%	0%	5%	?	.	3%
COc1ccccc1CNC(=O)C1CCCN(S(=O)(=O)c2cccs2)C1 (stereo unspecified)	-12%	.	-4%[46.1 µM]	-4%	1%	-26%	.	5%
O=C1CCN(S(=O)(=O)c2ccc(Br)cc2)CCN1	0%	.	-5%[46.1 µM]	1%	-18%	3%	.	.
Cc1cc(C)n(CC(O)COCc2ccco2)n1 (stereo unspecified)	-25%	1%	?	0%	8%	2%	-0.8%	-4%
CCCNC(=O)C1=CC(c2ccc3c(c2)OCO3)=NS(=O)(=O)N1C	17%	-25%	?	.	.	-1%[46.1 µM]	-9.0%	.
Clc1cccc(OCCN2CCNCC2)c1	-4%	12%	-26%	10%	27%	5%	0.7%	4%
C/C(=N\Nc1ncnc2sc(C)c(C)c12)c1ccccn1	17%	.	3.2µM*	-15%	?	?	.	-112%
COc1ccc(N(C(=O)Cc2cccs2)C2C=CS(=O)(=O)C2)cc1 (stereo unspecified)	-1%	.	0%[46.1 µM]	0%	-11%	10%	.	.
COc1ccc(C)cc1N(CC(=O)N1CCCCCC1)S(C)(=O)=O	0%	.	5%	?	-4%	17%	.	12%
O=C1c2ccccc2CCC12N=NCC2c1ccc(Br)cc1 (stereo unspecified)	-5%	2%	8%	-24%	0%[3.69 µM]	9%	-0.9%	-112%
CN(C(=O)c1cccc(S(=O)(=O)N2CCCCC2)c1)C1CCS(=O)(=O)C1 (stereo unspecified)	2%	.	?	-1%	8%	5%	.	.
CCCCCOC(=O)NCC(O)c1ccccc1 (stereo unspecified)	14%	?	-8%	7%	-17%	-2%	4.9%	5%
Cc1noc(-c2ccccc2OCC(=O)Nc2cccc([N+](=O)[O-])c2)n1	0%	?	-29%[46.1 µM]	.	.	?	-5.7%	.
COc1ccc(C(C)=O)cc1COC(=O)c1ccc(OCc2c(C)noc2C)cc1	-9%	-30%	-7%	-3%	-2%	-7%	-11%	-8%
O=S(=O)(Nc1cccc2cccnc12)c1ccccc1	?	.	?	-3%	-6%	?	.	-45%
CCOC(=O)c1ccc(NC2c3ccccc3C(=O)N2c2ccccn2)cc1 (stereo unspecified)	-1%	8%	.	0%	3%	.	0.9%	4%
CCOC(=O)C(=Cc1cn(C)c2ccc(S(=O)(=O)N(C)C)cc12)C(=O)OCC	32µM*	.	-22%[46.1 µM]	0%	4%	-6%[46.1 µM]	.	5%
CCOC(=O)CSc1nc2ccccc2c(=O)n1CCc1ccc(OC)c(OC)c1	?	0%	.	.	.	?	2.0%	.
CC1c2[nH]c3ccccc3c2C[C@H]2C(=O)N(CCO)CC(=O)N12 (stereo partly specified)	-25%	.	.	2%	-19%	.	.	-20%
Cc1ccc2c(c1)cc(C(=O)Nc1ccccc1C)n2C	22%	5%	0%[46.1 µM]	.	.	?	-1.4%	.
O=C(CSc1nc2ncc(Cl)cc2[nH]1)N(Cc1ccccc1)C1CCS(=O)(=O)C1 (stereo unspecified)	-6%	.	1%[46.1 µM]	0%	-5%	-2%[46.1 µM]	.	.
O=C(Cn1nc(C(F)F)cc1C1CC1)NCCC1=CCCCC1	.	4%	3%	0%	-4%	9%	1.9%	-4%
CC(C)(C)OC(=O)CNC(=O)c1nc[nH]c1C(=O)N1CCN(c2ccccc2)CC1	-19%	.	.	-5%	-7%	.	.	-13%
O=C(COC(=O)c1ccc(S(=O)(=O)N2CCCCCC2)cc1)NCc1ccc(F)cc1	-19%	.	0%	?	4%	4%	.	.
COc1ccc(-n2cc3c(c2-c2cccc(Br)c2)c(=O)n(C)c(=O)n3C)cc1OC	0%	-17%	11%[46.1 µM]	.	.	-1%[46.1 µM]	-0.9%	.
CCNc1oc(/C=C/c2ccc(OCC)cc2)nc1C#N	-7%	.	.	1%	-6%	.	.	-7%
Cc1ccc(-c2nc(N(C)C3CCN(C)CC3)c3ccccc3n2)cc1	.	-4%	?	-6%	-2%	?	-2.3%	-7%
Cc1ccc(NC(=O)c2c(C(=O)Nc3ccccc3)sc3nc(C)cc(=O)n23)c(C)c1	-10%	?	-2%[46.1 µM]	.	.	-18%[46.1 µM]	-2.9%	.
[O-][n+]1c(/C=C/c2ccccc2)ccc2ccccc21	-30%	.	.	-2%	-15%	.	.	-27%
Cc1ccc(NC(=O)CSc2nnc(N)s2)cc1S(=O)(=O)N1CCOCC1	-9%	.	-1%	8%	-3%	?	.	.
CC(C)S(=O)(=O)c1oc(-c2ccc(F)cc2)nc1S(=O)(=O)c1ccc(F)cc1	32µM*	6%	?	.	.	?	-5.2%	.
COc1ccc([N+](=O)[O-])cc1NC(c1nnc(-c2ccccc2)o1)c1ccccc1F (stereo unspecified)	-7%	1%	.	.	.	-3%[46.1 µM]	-0.9%	.
CCc1cc(=O)oc2cc(C)cc(OC(C)C(=O)NCCCn3ccnc3)c12 (stereo unspecified)	3%	.	22%[46.1 µM]	4%	-1%	22%[46.1 µM]	.	-13%
O=C(COC(=O)c1n[nH]c2ccccc12)Nc1cccc(S(=O)(=O)N2CCOCC2)c1	0%	.	-13%[46.1 µM]	1%	16%	8%	.	.
Cc1cccnc1CN1CCN(C(=O)c2cc(COc3ccc4ncccc4c3)on2)CC1	13µM*	.	?	0%	-29%	?	.	-3%
O=c1cc(-c2ccccc2)[nH]n1-c1ccccc1	10%	.	?	.	13%	-6%[46.1 µM]	.	.
CCc1ccc(CN(C)CC(O)COc2cccc3ccccc23)cc1 (stereo unspecified)	-12%	.	?	-15%	-17%	1%	.	-20%
Cc1ccc(OCCC(=O)OC(C)C(=O)Nc2ccc(Cl)cn2)cc1 (stereo unspecified)	-8%	.	0%	-2%	-23%	-5%	.	.
COc1ccc2c(C)cc(SCC(=O)Nc3nsc(-c4ccc(C)cc4)n3)nc2c1	-16%	?	20%	7%	-9%	3%	-2.3%	-20%
O=Cc1cn(Cc2cccc(F)c2)c2ccccc12	?	-1%	?	18%	10%	?	-4.3%	?
COC(=O)c1cc(C(=O)Nc2cc(C)on2)cc([N+](=O)[O-])c1	-3%	.	?	-6%	-6%	-27%	.	7%

Profiles from above. Order of values: 2A StopGo, Cruzain noTriton, MARV entry inh, SARS PLpro yeast, RE007 growth inh, Lassa entry inh, Cruzain Triton, NS1 function inh
CCc1cc(=O)oc2cc(C)cc(OC(C)C(=O)NCCCn3ccnc3)c12 (stereo unspecified) as listed: 3%, ., 22%[46.1 µM], 4%, -1%, 22%[46.1 µM], ., -13%
COC(=O)c1cc(C(=O)Nc2cc(C)on2)cc([N+](=O)[O-])c1 as listed: -3%, ., ?, -6%, -6%, -27%, ., 7%

Following part.
SMILES	2A StopGo	Cruzain noTriton	MARV entry inh	SARS PLpro yeast	RE007 growth inh	Lassa entry inh	Cruzain Triton	NS1 function inh
COc1ccc(C)cc1NC(=O)C1CCN(S(C)(=O)=O)CC1	-3%	.	.	2%	17%	.	.	8%
Cc1c(C(=O)NCc2ccccc2)sc2nc3n(c(=O)c12)CCC3	-5%	-4%	.	.	.	5%[46.1 µM]	-9.6%	.
O=C(Nc1cccnc1)Nc1ccccn1	56%[activator]	-4%	11%[46.1 µM]	0%	-3%	-1%	-0.8%	0%
O=C(NC1CCCCC1)c1cccnc1Sc1ccccc1Cl	7%	.	17%[46.1 µM]	0%	-18%	4%	.	-16%
Cc1c(C(=O)O)sc2nc(CSc3ncc(C(F)(F)F)cc3Cl)[nH]c(=O)c12	-9%	.	-3%[46.1 µM]	0%	4%	5%	.	2%
NC(=O)c1ccc(SCC(=O)OCC(=O)N2CCN(C(=O)c3ccco3)CC2)c([N+](=O)[O-])c1	-2%	.	-2%	0%	5%	3%	.	.
CCOc1ccc(NC(=O)c2cccc(OC(=S)N3CCOCC3)c2)cc1	-6%	.	-18%[46.1 µM]	1%	12%	0%	.	3%
CCOc1ccc(/C=N/n2cc(-c3ccccc3)[nH]c2=S)cc1	45%[activator]	.	0%	25%	15%	-1%	.	-6%
Cc1ccc(S(=O)(=O)CC(=O)NC(C)c2ccccc2)cc1 (stereo unspecified)	-6%	.	.	-4%	4%	.	.	10%
COc1ccc(N2CCN(S(=O)(=O)c3ccc(-c4ccno4)cc3OC)CC2)cc1	-22%	-6%	.	.	.	24%[46.1 µM]	5.5%	.
Cc1ccc(NC(=O)CCNS(=O)(=O)c2ccc3c(c2)oc(=O)n3C)cc1C	-28%	-1%	5%	10%	9%	0%	2.3%	1%
COc1ccc(C(=O)COc2ccccc2C(N)=O)cc1	6%	.	14%[46.1 µM]	1%	12%	27%	.	-1%
COc1ccc(NC(=O)CSC2=C(C#N)C(c3ccco3)C3=C(CCCC3=O)N2)c(OC)c1 (stereo unspecified)	5%	3%	?	8%	10%	-15%	-6.4%	5%
Cc1csc(N(C(=O)c2cccc(S(=O)(=O)N3CCCC3)c2)c2ccccc2)n1	?	?	-17%	8%	0%	-5%	-4.5%	9%
